# PINK1 expr mod = changes PINK1 expression. PINK1 immunofluorescence, high-content cytometry, 24 h. Potency, µM (highest dose often 76.6 µM), without a hit: top-dose activation (PINK1 increase), most hits filed as activators. hit rate 0.2% among 410,000. AID 624263; active = well fitted activation curve with a large enough effect; inconclusive = small, poorly fitted or top-dose-only effect; inactive = flat fitted curve, though single readings scatter; cell line not stated here;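 also: potency is read from the fitted curve at half-maximal effect; % of control where 0% means no effect; nearly all actives have a fitted effect of over 65% in size; a mitochondrial uncoupler was the plate control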
#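 Stable cell line treated 24 h with compounds at 5 concentrations (CCCP controls), then fixed and immunostained for PINK1 plus nuclear and cell stains; PINK1 immunofluorescence quantified by laser-scanning microplate cytometry.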
# TRPML1 blocker = blocks the human TRPML1 channel; TRPML1-inducible cells, Ca2+ dye fluorescence, FDSS; hits give low values; inhibition of EC80 agonist-evoked calcium signal; activity change, negative = inhibition, % (concentration not given with the values); hit rate 0.02% among 390,000; in the data active means activity change below about -50%; inconclusive means about -30% to -50%; inactive means above about -30%;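 also: stimulus is agonist 54-4 at its EC80 concentration; % is scaled to controls: 0 for no effect and ±100 for the full control effect; compound concentration not given in the record; the text of the record puts the active cut at -80%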
# Target sequence (Q9GZU1 whole entry, looked up): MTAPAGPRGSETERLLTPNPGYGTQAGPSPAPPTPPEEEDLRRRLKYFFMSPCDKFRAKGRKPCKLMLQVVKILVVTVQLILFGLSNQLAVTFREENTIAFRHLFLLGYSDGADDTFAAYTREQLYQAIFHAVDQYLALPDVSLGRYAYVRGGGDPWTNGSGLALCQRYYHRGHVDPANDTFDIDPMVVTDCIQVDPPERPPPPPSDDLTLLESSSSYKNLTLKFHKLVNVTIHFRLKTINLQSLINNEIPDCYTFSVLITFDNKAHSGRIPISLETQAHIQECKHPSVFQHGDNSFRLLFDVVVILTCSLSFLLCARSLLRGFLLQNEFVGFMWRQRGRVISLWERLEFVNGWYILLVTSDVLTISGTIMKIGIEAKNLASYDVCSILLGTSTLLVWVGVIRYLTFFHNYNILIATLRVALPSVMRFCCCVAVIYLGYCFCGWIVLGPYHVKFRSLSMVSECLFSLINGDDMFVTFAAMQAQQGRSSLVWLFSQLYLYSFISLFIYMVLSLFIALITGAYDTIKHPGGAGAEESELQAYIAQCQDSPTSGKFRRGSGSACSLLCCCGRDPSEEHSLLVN
#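 Calcium fluorescence in TRPML1-DL cells induced overnight with Tet: a 110 s read after compound pin addition, then a 110 s antagonist read after challenge with 54-4 at 4 uM final (EC80).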
# CtBP-E1A inh = CtBP/E1A binding inhibition. AlphaScreen GST-E1A/His-CtBP binding, 1536-well; hits give low values; control for the full effect not named in the record. activity change, % (no concentration beside the values). AID 651724. hit rate 0.49% among 340,000; in the data active means activity change below about -65%; inconclusive means about -30% to -65%; inactive means above about -30%; also: % is scaled to controls: 0 for no effect and ±100 for the full control effect; compound concentration not given in the record
#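 In 5 uL wells, 23 nL compound meets equimolar GST-E1A and His-CtBP (5X stock 125 nM each) for 2 h, 37 °C. Beads (5X, 50 ug/mL) then 1 h, 37 °C, dark.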
# Six1-Eya2 inh = blocks human Six1 binding to Eya2. Q15475+O00167. AlphaScreen GST-Six1/His-Eya2 binding, biochemical; hits give low values; control for the full effect not named in the record. activity change, % (concentration not given with the values). hit rate 0.56% among 360,000. AID 651725; in the data active = activity change below about -65%; inconclusive = about -30% to -65%; inactive = above about -30%; also: % is scaled to controls: 0 for no effect and ±100 for the full control effect
#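 AlphaScreen luminescence read after one hour at 37 °C in darkness. Pin-transferred compounds met GST-Six1 and His-Eya2 protein (5X stock 250 nM/500 nM) plus glutathione donor and Ni-chelate acceptor beads (5X, 50 ug/mL).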
# D2 ag = activates the human D2 dopamine receptor; P14416; activation, % (test concentration not listed); DiscoveRx PathHunter D2 beta-arrestin, luminescence, 90 min; 100% = 57 uM dopamine signal; hit rate 0.084% among 360,000; in the data active = activation above about 40%; inconclusive = about 15% to 40%; inactive = below about 15%; also: compound concentration not given in the record; the text of the record calls up to 30% inactive
# Target sequence (P14416 whole entry, looked up): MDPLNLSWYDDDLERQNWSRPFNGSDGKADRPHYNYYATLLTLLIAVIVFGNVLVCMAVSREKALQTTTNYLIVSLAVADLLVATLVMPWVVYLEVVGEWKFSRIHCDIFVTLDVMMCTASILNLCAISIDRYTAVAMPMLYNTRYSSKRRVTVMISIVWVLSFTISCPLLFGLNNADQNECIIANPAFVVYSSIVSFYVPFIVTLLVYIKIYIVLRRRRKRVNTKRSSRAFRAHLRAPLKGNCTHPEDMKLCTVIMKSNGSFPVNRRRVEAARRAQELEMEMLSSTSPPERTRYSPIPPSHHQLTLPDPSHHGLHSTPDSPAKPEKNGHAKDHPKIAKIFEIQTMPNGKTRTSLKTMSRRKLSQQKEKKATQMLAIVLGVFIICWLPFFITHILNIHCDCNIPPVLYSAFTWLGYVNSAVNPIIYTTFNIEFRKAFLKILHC
#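 DiscoveRx PathHunter D2 beta-arrestin cells (2,100/well) attached overnight, then compound-stimulated 90 min at 37 C in HBSS/10 mM HEPES/0.1% Tween-20 buffer; beta-galactosidase complementation read by luminescence after 1 h at ambient temperature. Dopamine 57 uM final (EC100) as control.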
# TRPML1 agonist = human mucolipin-1 channel agonism; Q9GZU1; activation, % (concentration not given with the values); TRPML1-expressing cells, Ca2+ dye fluorescence, FDSS; host cell line not named in the record; reference of the full effect not given here; hit rate 0.12% among 410,000; in the data active = activation above about 50%; inconclusive = about 30% to 50%; inactive = below about 30%; also: 0% is about no effect; the text of the record puts the active cut at 80%
#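 In this qHTS format, compounds were pin-transferred onto Ca8-dye-loaded TRPML1-DL cells induced with Tet overnight, and intracellular Ca2+ fluorescence was recorded kinetically for 110 s after a 10 s baseline. A subsequent 4uM final 54-4 (EC80) addition followed by a second 110 s read served as the antagonist phase.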
# * marks the source's active call; other numbers are inactive results; ? = inconclusive; / = not tested or not shown; [ ] = remark or other dose. The order is random; about 1% have a hit in one of these screens.
SMILES,PINK1 expr mod,TRPML1 blocker,CtBP-E1A inh,Six1-Eya2 inh,D2 ag,TRPML1 agonist
CN1CCc2c(sc3c2c(=O)n(-c2ccccc2)c2nnc(SCc4ccc(F)cc4)n32)C1,0.5%,26.6,/,5.1,-3.5,0.5
CCn1nc(C)c(NS(=O)(=O)c2ccccc2)c1C,-2.4%[38.3 µM],15.2,9.8,3.7,1.9,0.2
Cc1cc(C(F)(F)F)c(C#N)c(Sc2ccccc2)n1,2.2%,6.3,40.8,47.0,-2.3,0.5
CSc1nc(C=Nc2ccccc2Cl)c(O)n1Cc1cccc(Cl)c1,1.9%,2.4,-3.2,-21.4,-2.7,-0.6
O=C(Cc1ccc(S(=O)(=O)N2CCCCC2)s1)Nc1ccc(F)cc1F,3.3%,29.4,-3.5,0.0,1.3,-0.9
C/C(=N/NC(=O)c1cccc(N2CCCC2=O)c1)c1ccc(Br)cc1,-0.8%,19.7,-13.8,-0.5,2.1,0.9
Cc1cc(C)cc(-n2c(SCC(=O)NCc3ccc4c(c3)OCO4)nc3ccccc3c2=O)c1,7.7%,-8.0,-1.8,-10.7,-2.7,-0.4
Cc1ccc(Cn2ccnc2SCC(=O)NCc2ccccc2)cc1,0.2%,37.9,/,/,/,2.1
O=C(Nc1ccccc1)OC1CCS(=O)(=O)C1 (stereo not drawn),-1.2%,-3.6,5.5,-2.4,-4.0,0.1
C=CC1C(OC2OC(CO)C(O)C(O)C2O)OC=C(C(=O)OC)C1CC1CC(=O)CC(CC(=O)CCc2ccc(O)cc2)O1 (stereo not drawn),0.8%,40.7,2.2,5.6,0.3,-0.3
CC(NC(=O)c1ccc([N+](=O)[O-])cc1[N+](=O)[O-])c1ccc(-c2ccccc2)cc1 (stereo not drawn),?,8.4,-13.1,4.1,13.6,0.5
CCOc1ccc(N(CC(=O)Nc2ccc(C)c(F)c2)C2=NC3CS(=O)(=O)CC3S2)cc1 (stereo not drawn),-0.6%,-13.2,3.1,2.6,-2.4,-0.2

# Three entries from above, field by field:
SMILES: CN1CCc2c(sc3c2c(=O)n(-c2ccccc2)c2nnc(SCc4ccc(F)cc4)n32)C1
  PINK1 expr mod: 0.5%	TRPML1 blocker: 26.6	CtBP-E1A inh: /	Six1-Eya2 inh: 5.1	D2 ag: -3.5	TRPML1 agonist: 0.5
SMILES: CCn1nc(C)c(NS(=O)(=O)c2ccccc2)c1C
  PINK1 expr mod: -2.4%[38.3 µM]	TRPML1 blocker: 15.2	CtBP-E1A inh: 9.8	Six1-Eya2 inh: 3.7	D2 ag: 1.9	TRPML1 agonist: 0.2
SMILES: Cc1cc(C(F)(F)F)c(C#N)c(Sc2ccccc2)n1
  PINK1 expr mod: 2.2%	TRPML1 blocker: 6.3	CtBP-E1A inh: 40.8	Six1-Eya2 inh: 47.0	D2 ag: -2.3	TRPML1 agonist: 0.5

# More structures follow.
SMILES,PINK1 expr mod,TRPML1 blocker,CtBP-E1A inh,Six1-Eya2 inh,D2 ag,TRPML1 agonist
CCOc1ccc(OCC)c(NC(=O)c2nnn(CC(=O)Nc3ccc(C)cc3C)c2N)c1,1.3%,-15.0,/,/,/,-0.7
CC(=O)N(CCN(C)C)c1nc2cc3c(cc2s1)OCCO3,0.2%,8.4,/,15.4,-5.3,-0.2
COc1ccc(C(=O)NCC2CCCN2S(=O)(=O)c2ccccc2)cc1OC (stereo not drawn),0.4%,5.7,-4.7,-2.7,-0.4,-1.0
Cc1ccc(SCC(=O)N/N=C/c2ccco2)cc1,0.4%,9.6,-3.2,5.3,1.6,0.7
CCOc1ccccc1Oc1coc2cc(OC)ccc2c1=O,1.7%,-5.9,6.3,0.8,0.5,0.6
COc1ccc(C(=O)Nc2ccc(-c3nc4ccccc4s3)c(Cl)c2)cc1Cl,-0.1%,-27.4,/,/,/,-0.2
F[B-](F)(F)COc1ccccc1,-0.8%,32.7,-18.1,2.9,-2.4,-0.1
Cc1ccc(NC(=O)C2CCCN(C(=O)c3cnn(-c4ccc(F)cc4)c3-n3cccc3)C2)c(Cl)c1 (stereo not drawn),2.2%,-4.1,/,/,/,2.6
COc1ccc(NC(=O)COc2coc(CN3CCCc4ccccc43)cc2=O)cc1,0.0%,5.9,0.0,23.4,-3.9,-0.3
COc1ccc(CCNc2cc(N3CCN(C(=O)c4ccccc4OC)CC3)ccc2[N+](=O)[O-])cc1OC,-1.3%,-21.0,0.0,-2.4,4.4,1.8
O=C(C1=NOC2(C1)C(=O)Nc1ccccc12)N1CCCCC1 (stereo not drawn),2.7%,/,4.2,2.5,/,-0.7
CCS(=O)(=O)N1CCCC(C(=O)c2ccc(OC)cc2C)C1 (stereo not drawn),2.9%,1.0,21.0,6.5,0.9,-0.7
CCOCc1c(C(=O)Nc2cc(OCC)c(N3CCOCC3)cc2OCC)oc2ccccc12,3.4%,1.2,-10.7,-6.3,-0.7,0.1
O=C(COC(=O)c1c[nH]c(=O)[nH]c1=O)Nc1ccccc1F,-0.5%,-8.9,0.0,-0.4,-1.2,0.0
Fc1ccc(OCc2cc(-c3ccccc3)no2)cc1,1.2%,23.3,/,61.3,4.7,5.0
Cc1cc(C)cc(NC(=O)c2cnn(-c3ccc(C)c(C)c3)c2C2CCNCC2)c1,2.2%,-0.8,/,/,/,1.4
CCN(CC)CCOC(=O)C(Cc1cccc2ccccc12)CC1CCCO1 (stereo not drawn),-1.6%,0.7,-15.7,-10.5,1.3,1.9
CCOC(=O)C1CCN(c2nc3c(S(=O)(=O)c4ccc(C)c(C)c4)nnn3c3ccc(Cl)cc23)CC1,0.5%,-4.3,/,/,/,0.8
COc1ccc(N2CCN(C(=O)c3ccc4c(=O)n(Cc5ccc6c(c5)OCO6)c(=O)[nH]c4c3)CC2)cc1,5.1%,-27.5,-11.5,2.6,2.3,0.5
FC(F)(F)c1cccc(-c2nnn3c2nc(NC2CCCCC2)c2ccccc23)c1,0.2%,-2.8,/,/,/,-0.6
CCCC1c2ccc(C)n2CCN1C(=O)Nc1ccccc1Cl (stereo not drawn),-0.4%,21.7,-1.0,-5.8,-0.8,1.0
Cn1c(=O)[nH]c(=O)c2c1nc(Br)n2CCCSc1nc2ccccc2o1,?,-5.2,0.4,-5.1,1.8,2.1
CCC(=O)N1CCc2cc(Br)cc(S(=O)(=O)NCC3CCCN3CC)c21 (stereo not drawn),1.3%,-6.2,3.7,2.7,-3.9,-0.8
COCCCn1c(=N)c(C(=O)NCc2ccc3c(c2)OCO3)cc2c(=O)n3ccccc3nc21,-1.5%,9.3,-1.0,-5.3,-2.0,-1.0

# Of the compounds above, three contain bromine:
SMILES,PINK1 expr mod,TRPML1 blocker,CtBP-E1A inh,Six1-Eya2 inh,D2 ag,TRPML1 agonist
C/C(=N/NC(=O)c1cccc(N2CCCC2=O)c1)c1ccc(Br)cc1,-0.8%,19.7,-13.8,-0.5,2.1,0.9
Cn1c(=O)[nH]c(=O)c2c1nc(Br)n2CCCSc1nc2ccccc2o1,?,-5.2,0.4,-5.1,1.8,2.1
CCC(=O)N1CCc2cc(Br)cc(S(=O)(=O)NCC3CCCN3CC)c21 (stereo not drawn),1.3%,-6.2,3.7,2.7,-3.9,-0.8

# (further entries)
SMILES,PINK1 expr mod,TRPML1 blocker,CtBP-E1A inh,Six1-Eya2 inh,D2 ag,TRPML1 agonist
O=C1N(CC(=O)N2CCc3ccccc32)CCN1Cc1ccc(Cl)cc1,12.2%,55.9,-8.0,-13.0,-2.6,0.6
COC(=O)c1ccc(CSc2n[nH]c(-c3ccccc3)n2)o1,1.4%,9.2,/,2.4,0.3,1.0
Nc1cc(N)nc(SCC(=O)Nc2ccccc2)n1,-0.1%,2.6,2.6,2.5,0.8,0.4
O=C(c1ccncc1)N1CCN(c2cc(-c3ccccc3)nc3cc(-c4cccc(Cl)c4)nn23)CC1,1.9%,-3.8,4.5,8.8,-6.9,-0.6
CCOC(=O)N1CCc2c(sc(NC(=O)Cc3ccccc3)c2C(=O)c2ccc(OC)cc2)C1,1.5%,56.7,-25.0,-28.3,-2.0,3.0
Cc1cc(C)n(-c2ccc(NC(=O)C3CCN(Cc4cc(C)c(C)o4)CC3)cc2)n1,0.0%,-11.1,-6.5,-0.2,-3.8,-0.2
CC(C)C[C@H](NC(=O)c1nc[nH]c1C(=O)NCCNC(=O)OC(C)(C)C)C(=O)CNCCNC(=O)c1[nH]cnc1C(=O)N[C@@H](C)C(=O)OC(C)(C)C,1.7%,-20.3,20.6,-4.3,0.9,0.1
CCC(NS(=O)(=O)c1cccs1)c1ccc(C)cc1 (stereo not drawn),-0.4%,-19.5,2.1,2.3,3.6,1.5
Cc1ccc(OCC(=O)NC(=S)Nc2ccc(S(=O)(=O)Nc3cc(C)on3)cc2)c(Br)c1,-0.9%,1.7,3.1,1.3,-0.3,-0.2
COc1ccc(N(CC(=O)NCCc2ccc(C)cc2)S(=O)(=O)c2c(C)nn(C)c2C)cc1,-0.2%,-6.0,/,/,/,-0.9
Cc1nc(-c2ccc(F)cc2)c(CC(=O)N2CCN(S(=O)(=O)c3cccc(F)c3)CC2)s1,-1.3%,-3.9,2.7,1.8,-6.1,-0.5
C[C@@H]1CCCCCCCCC(=O)OCCN(C(=O)OC(C)(C)C)[C@H](C)CCCCCCCCC(=O)OCCN(C(=O)OC(C)(C)C)[C@H](C)CCCCCCCCC(=O)OCCN1C(=O)OC(C)(C)C,-0.6%,7.2,3.3,-1.9,-2.7,-0.6
Cc1noc(C)c1S(=O)(=O)N(C)C[C@H]1Oc2c(NC(=O)Nc3ccc4c(c3)OCO4)cccc2C(=O)N([C@H](C)CO)C[C@@H]1C,-0.8%,-0.7,-4.9,-0.3,-0.8,-0.7
N/C(=N\OC(=O)c1ccccc1Cl)c1ccccc1,9.2%[38.3 µM],-9.7,46.4,35.5,10.4,0.6
O=C(Nc1ccc(C(F)(F)F)cc1)N1CCN(c2ccnc3cc(Cl)ccc23)CC1,7.9%,1.8,-0.3,3.8,5.5,0.2

# Looked up above:
# Cc1ccc(OCC(=O)NC(=S)Nc2ccc(S(=O)(=O)Nc3cc(C)on3)cc2)c(Br)c1 – CtBP-E1A inh = 3.1
# COC(=O)c1ccc(CSc2n[nH]c(-c3ccccc3)n2)o1 – Six1-Eya2 inh = 2.4
# O=C(c1ccncc1)N1CCN(c2cc(-c3ccccc3)nc3cc(-c4cccc(Cl)c4)nn23)CC1 – D2 ag = -6.9
# Nc1cc(N)nc(SCC(=O)Nc2ccccc2)n1 – CtBP-E1A inh = 2.6
# COc1ccc(N(CC(=O)NCCc2ccc(C)cc2)S(=O)(=O)c2c(C)nn(C)c2C)cc1 – TRPML1 blocker = -6.0

# Bioassay records deposited in PubChem by National Center for Advancing Translational Sciences (NCATS).
